Source: PubChem BioAssay (Broad Institute)
rRNA inh HTS – inhibits bacterial ribosomal RNA function over humanized ribosomes; AID 720706; E. coli WT GFP vs humanized-ribosome RFP mutants, fluorescence, 24 h; hits give low values; DMSO median 0, no signal -100; GFP signal change (wild-type ribosome), % (concentration not given with the values); 1.6% of 350,000 active;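 active means significant combined selectivity score with lowered wild-type GFP, culture density cut under 30%, mutant RFP and density less affected; inactive means any of these conditions unmet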; further: one replicate is shown; some compounds called inactive have numbers as strong as hits
rRNA inh HTS OD600 – also measured in rRNA inh HTS; calls as there; OD600 change, %; measured here: OD600 growth;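 optical density of the mix in the first replicate; 0 = DMSO median and -100 = no signal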
rRNA inh HTS RFP – further read-out of rRNA inh HTS, marked with its call; RFP signal change, %; measured here: RFP humanized mutant strains;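 first replicate; 0 = DMSO median and -100 = no signal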
Numbers without * were called inactive. The list is partial, so the mix of outcomes need not match the whole.

SMILES | rRNA inh HTS | rRNA inh HTS OD600 | rRNA inh HTS RFP
C[C@H](CO)N1C[C@H](C)[C@@H](CN(C)Cc2ccncc2)Oc2ccc(NC(=O)Nc3cccc4ccccc34)cc2CC1=O | -2.5 | -4.3 | 2.0
O=C(NCC[C@@H]1CC[C@H](NS(=O)(=O)c2ccc(F)cc2)[C@@H](CO)O1)c1ccccc1F | -1.4 | -1.2 | -0.8
CC[C@@H]1CC=CC[C@@H](C)Oc2ccccc2C(=O)N(C)[C@@H](C(C)C)C(=O)N1 (mixture of isomers) | 1.4 | 11.1 | -0.4
C[C@@H]1CN([C@H](C)CO)C(=O)c2cccc(NC(=O)Nc3ccc4c(c3)OCO4)c2O[C@H]1CN(C)CC1CCCCC1 | -13.2 | -42.8 | -3.2
CCCNC(=O)C[C@H]1C[C@@H]2c3cc(NC(=O)C4CCC4)ccc3O[C@@H]2[C@@H](CO)O1 | -2.2 | 5.1 | 0.7
C[C@H](CO)N1C[C@H](C)[C@@H](CN(C)C)OCCCC[C@H](C)Oc2ccc(NC(=O)Nc3ccc4c(c3)OCO4)cc2C1=O | 2.8 | 3.0 | -2.1
CO[C@@H]1CN(C)C(=O)c2cc(NC(=O)c3ccc4c(c3)OCO4)ccc2OC[C@H](C)NC[C@@H]1C | 1.3 | 0.0 | -3.4
C[C@H]1CCCCO[C@@H](CN(C)C)[C@@H](C)CN([C@@H](C)CO)C(=O)c2cc(NC(=O)Nc3ccc4c(c3)OCO4)ccc2O1 | 1.9 | 1.5 | -1.7
Cc1cccc(-c2ccc([C@H]3[C@@H](CO)N4C(=O)CN(C(=O)c5cnccn5)C[C@@H]34)cc2)c1 | 2.1 | 2.6 | -5.6
CCC(=O)NC[C@@H]1[C@@H](c2ccc(C3=CCCC3)cc2)[C@@H](CO)N1C(=O)CC | 1.7 | 6.5 | -1.9
COCC#Cc1ccc([C@H]2[C@H]3CN(C(=O)CN4CCOCC4)CC(=O)N3[C@H]2CO)cc1 | 1.7 | 10.7 | -2.9
CC(=O)N1CC2(C1)[C@H](c1ccc(-c3cccc(F)c3)cc1)[C@H](CO)N2CC1CC1 | -4.4 | -10.2 | -1.7
C[C@H]1CN([C@@H](C)CO)S(=O)(=O)c2ccc(Br)cc2O[C@@H]1CN(C)C(=O)C1CCC1 | 0.2 | 3.8 | 4.5
O=C(Nc1cc(F)ccc1F)N[C@H]1CC[C@@H](CCn2cc(C3CCCC3)nn2)O[C@H]1CO | -7.9 | -12.1 | 1.8
CN(C)c1ccc2c(c1)[C@H]1C[C@H](CC(=O)NC3CCCC3)O[C@@H](CO)[C@H]1O2 | 0.2 | -2.8 | 2.8
CCCN(C)C[C@@H]1Oc2cc(-c3ccc(C#N)cc3)ccc2S(=O)(=O)N([C@H](C)CO)C[C@@H]1C | 4.6 | -6.0 | -2.3
O=C(C[C@H]1C=C[C@@H](NC(=O)c2cccnc2)[C@H](CO)O1)NCCN1CCCCC1 | 2.4 | -0.2 | -0.6
COc1ccc2c3c([nH]c2c1)[C@H](CO)N(C(=O)Nc1ccc(F)cc1)CC31CN(Cc2ccccc2OC)C1 | -59.8 | -75.2 | -17.6
COc1cccc(C#Cc2ccc([C@@H]3[C@H](CO)N4C(=O)CN(C(=O)Cc5ccccc5)C[C@@H]34)cc2)c1 | -23.2 | -61.4 | 9.3
O=C(C[C@@H]1C=C[C@H](NC(=O)c2cccnc2)[C@H](CO)O1)NCCN1CCCCC1 | 4.4 | -0.4 | 1.7
CC(C)C(=O)Nc1ccc2c(c1)C(=O)N(C)[C@H]1CC[C@@H](CC(=O)O)O[C@H]1CO2 | 4.7 | -6.9 | 0.4
O=C(c1ccc(F)cc1)N1CC(=O)N2[C@@H](CO)[C@@H](c3ccc(C#CC4CC4)cc3)[C@@H]2C1 | -3.9 | 5.2 | 1.0
CN(C)CC(=O)N[C@H]1CC[C@@H](CC(=O)O)O[C@H]1CO | 1.5 | 3.3 | 0.7
CC(=O)N1[C@H](CO)[C@H](c2ccc(-c3cccc(F)c3)cc2)[C@H]1CNC(=O)C1CC1 | -3.4 | -5.0 | 2.0
O=C(C[C@@H]1CC[C@H](NC(=O)C2CCOCC2)[C@H](CO)O1)Nc1ccccc1 | 1.4 | 3.5 | -1.3
COCC#Cc1ccc([C@@H]2[C@H]3CN(C(=O)Nc4ccccc4F)CC(=O)N3[C@H]2CO)cc1 | 3.7 | 21.6 | 0.5
Cc1ccccc1S(=O)(=O)N1CC(=O)N2[C@H](CO)[C@@H](c3ccc(C#CCC(C)C)cc3)[C@@H]2C1 | 4.7 | 5.5 | 5.9
CO[C@@H]1CN(C)C(=O)c2cc(NS(C)(=O)=O)ccc2OC[C@H](C)N(Cc2cccnc2)C[C@@H]1C | -2.6 | 0.2 | -2.2
CCCNC[C@@H]1[C@@H](c2ccc(C3=CCCC3)cc2)[C@@H](CO)N1C(=O)C1CCCC1 | 2.0 | 4.9 | 5.0
C/C=C/c1ccc([C@H]2[C@@H](CO)N(C(=O)C3CCCC3)C23CN(C(=O)NC(C)C)C3)cc1 | -2.4 | 0.6 | -2.4

Arranged by count of non-hydrogen atoms (highest first): some entries from above
SMILES | rRNA inh HTS | rRNA inh HTS OD600 | rRNA inh HTS RFP
COc1ccc2c3c([nH]c2c1)[C@H](CO)N(C(=O)Nc1ccc(F)cc1)CC31CN(Cc2ccccc2OC)C1 | -59.8 | -75.2 | -17.6
CO[C@@H]1CN(C)C(=O)c2cc(NC(=O)c3ccc4c(c3)OCO4)ccc2OC[C@H](C)NC[C@@H]1C | 1.3 | 0.0 | -3.4
CCCN(C)C[C@@H]1Oc2cc(-c3ccc(C#N)cc3)ccc2S(=O)(=O)N([C@H](C)CO)C[C@@H]1C | 4.6 | -6.0 | -2.3
O=C(Nc1cc(F)ccc1F)N[C@H]1CC[C@@H](CCn2cc(C3CCCC3)nn2)O[C@H]1CO | -7.9 | -12.1 | 1.8
COCC#Cc1ccc([C@H]2[C@H]3CN(C(=O)CN4CCOCC4)CC(=O)N3[C@H]2CO)cc1 | 1.7 | 10.7 | -2.9
CC(=O)N1[C@H](CO)[C@H](c2ccc(-c3cccc(F)c3)cc2)[C@H]1CNC(=O)C1CC1 | -3.4 | -5.0 | 2.0
CN(C)CC(=O)N[C@H]1CC[C@@H](CC(=O)O)O[C@H]1CO | 1.5 | 3.3 | 0.7

Look-ups from the entries so far.
rRNA inh HTS OD600 with O=C(NCC[C@@H]1CC[C@H](NS(=O)(=O)c2ccc(F)cc2)[C@@H](CO)O1)c1ccccc1F = -1.2
rRNA inh HTS OD600 with CCCNC(=O)C[C@H]1C[C@@H]2c3cc(NC(=O)C4CCC4)ccc3O[C@@H]2[C@@H](CO)O1 = 5.1
rRNA inh HTS with COCC#Cc1ccc([C@H]2[C@H]3CN(C(=O)CN4CCOCC4)CC(=O)N3[C@H]2CO)cc1 = 1.7
rRNA inh HTS RFP with CO[C@@H]1CN(C)C(=O)c2cc(NS(C)(=O)=O)ccc2OC[C@H](C)N(Cc2cccnc2)C[C@@H]1C = -2.2

Three of the entries above in order of their number in rRNA inh HTS, rising:
SMILES | rRNA inh HTS | rRNA inh HTS OD600 | rRNA inh HTS RFP
CC[C@@H]1CC=CC[C@@H](C)Oc2ccccc2C(=O)N(C)[C@@H](C(C)C)C(=O)N1 (mixture of isomers) | 1.4 | 11.1 | -0.4
CN(C)CC(=O)N[C@H]1CC[C@@H](CC(=O)O)O[C@H]1CO | 1.5 | 3.3 | 0.7
Cc1ccccc1S(=O)(=O)N1CC(=O)N2[C@H](CO)[C@@H](c3ccc(C#CCC(C)C)cc3)[C@@H]2C1 | 4.7 | 5.5 | 5.9

Other results follow:
SMILES | rRNA inh HTS | rRNA inh HTS OD600 | rRNA inh HTS RFP
CC(C)CC#Cc1ccc2c(c1)O[C@@H](CN(C)S(=O)(=O)c1cccc(F)c1)[C@H](C)CN([C@@H](C)CO)S2(=O)=O | 0.6 | 3.8 | -2.4
CN(C)CC(=O)N[C@H]1C=C[C@@H](CC(=O)O)O[C@@H]1CO | -1.0 | 3.5 | -1.1
Cc1ccccc1-c1ccc([C@@H]2[C@@H](CO)N3CCCCN(S(=O)(=O)c4ccc(F)cc4)C[C@H]23)cc1 | -54.3 | -45.9 | -2.8
C[C@@H]1CN([C@H](C)CO)C(=O)c2cc(NC(=O)Nc3cccc4ccccc34)ccc2O[C@@H]1CN(C)C(=O)NC1CCCCC1 | -6.8 | -8.3 | -0.6
CCCN1C[C@@H](C)[C@@H](OC)CN(C)C(=O)c2cc(NC(=O)Nc3cccc(OC)c3)ccc2OC[C@H]1C | -2.4 | -4.4 | 0.5
C[C@H]1CN([C@@H](C)CO)C(=O)c2cc(C#CC3CCCCC3)cnc2O[C@H]1CN(C)C | 6.0 | 5.2 | -0.7
CN(C)C(=O)c1cccc(-c2ccccc2[C@H]2[C@H](C#N)N(C(=O)C3CCC3)[C@H]2CO)c1 | 3.5 | 20.9 | 2.2
O=C(NCC(F)(F)F)[C@H]1[C@H](CO)[C@H]2Cn3c(cccc3=O)[C@@H]1N2CCC(F)(F)F | 0.8 | 4.1 | -1.3
CC(=O)N1C[C@@H]2C(c3ccccc3)[C@H](C1)N2C(=O)NC(C)C (stereo partly drawn) | -3.3 | -11.4 | -0.3
C[C@@H]1CN([C@@H](C)CO)C(=O)c2cccc(N(C)C)c2O[C@H]1CN(C)C(=O)NC1CCCCC1 | 2.4 | -3.5 | 3.0
C[C@@H]1CCCCO[C@@H](CN(C)C(=O)c2ccccc2)[C@@H](C)CN([C@H](C)CO)C(=O)c2cc(NS(=O)(=O)c3ccccc3)ccc2O1 | 3.6 | 2.5 | -0.7
Cc1cccc(-c2ccc([C@@H]3[C@@H](CO)N4C(=O)CN(C(=O)c5cccnc5)C[C@@H]34)cc2)c1 | 0.4 | -6.8 | -0.7
O=C(C[C@H]1CC[C@@H]2[C@H](COC[C@H](O)CN2S(=O)(=O)c2ccccc2)O1)NCCN1CCCC1 | -0.8 | 8.7 | -2.0
CCCC#Cc1ccc2c(c1)O[C@@H](CN(C)Cc1ccccc1)[C@H](C)CN([C@H](C)CO)S2(=O)=O | -4.5 | 2.9 | 0.1
CO[C@H]1CN(C)C(=O)c2cc(NC(=O)Nc3ccc(Cl)cc3)ccc2OC[C@H](C)N(C(=O)Nc2c(C)noc2C)C[C@H]1C | -1.3 | -8.3 | 9.2
C[C@H](CO)N1C[C@H](C)[C@@H](CN(C)S(=O)(=O)c2cn(C)cn2)Oc2c(NC(=O)Cc3ccccc3)cccc2C1=O | 0.8 | 7.9 | -0.1
COc1ccc2c3c([nH]c2c1)[C@@H](CO)N(S(=O)(=O)c1cn(C)cn1)CC31CN(CC2CCOCC2)C1 | 3.3 | 11.9 | 0.5
C/C=C/c1ccc([C@H]2[C@H](CO)N3C(=O)CN(C(=O)Cc4cccnc4)C[C@@H]23)cc1 | 0.1 | -1.1 | 0.3
CCCNC(=O)N1CC(=O)N2[C@H](CO)[C@H](c3ccc(C#Cc4cccc(F)c4)cc3)[C@H]2C1 | -2.5 | 3.7 | 2.2
C[C@H]1CN([C@@H](C)CO)C(=O)c2cccc(NC(=O)c3cnccn3)c2O[C@H]1CN(C)S(=O)(=O)c1ccccc1 | -3.6 | 3.4 | 0.2
C[C@@H]1CN([C@H](C)CO)C(=O)c2cc(-c3ccccc3)cnc2O[C@H]1CN(C)C(=O)c1cccc(F)c1 | -4.0 | -6.7 | -3.5
CN(C)C(=O)c1cccc(-c2ccccc2[C@H]2[C@@H](C#N)N(C(=O)C3CCC3)[C@H]2CO)c1 | 0.3 | 0.3 | -8.7
CCCN(C)C[C@H]1OCCCC[C@H](C)Oc2ccc(NS(=O)(=O)c3cn(C)cn3)cc2C(=O)N([C@H](C)CO)C[C@H]1C | 2.2 | 4.5 | -3.6
CO[C@@H]1CN(C)C(=O)c2cc(NC(=O)C3CC3)ccc2OC[C@H](C)N(C(=O)c2ccccn2)C[C@H]1C | 1.6 | 0.4 | -2.5
C[C@@H]1CN([C@H](C)CO)C(=O)CCCn2cc(nn2)CO[C@@H]1CN(C)C(=O)Nc1ccc2c(c1)OCO2 | 2.0 | 0.6 | -0.2
CO[C@@H]1CN(C)C(=O)c2ccc(NS(C)(=O)=O)cc2OC[C@H](C)N(Cc2ccccc2)C[C@H]1C | -6.0 | -11.4 | 1.3
CN(C)C(=O)c1cccc(-c2ccc([C@H]3[C@H]4CN(C(=O)CC5CC5)CC(=O)N4[C@H]3CO)cc2)c1 | 2.8 | 8.8 | -2.4
CCCNC(=O)N1[C@H](CO)[C@H](c2ccccc2)[C@@H]1CNC(=O)C1CC1 | -0.4 | 2.6 | -0.4
CCS(=O)(=O)Nc1ccc2c(c1)C(=O)N(C)C[C@H](OC)[C@@H](C)CN(C(=O)COC)[C@H](C)CO2 | 1.6 | 5.4 | -0.6
C[C@@H]1CN([C@@H](C)CO)C(=O)c2cc(NS(=O)(=O)c3ccc(Cl)cc3)ccc2O[C@@H]1CN(C)S(C)(=O)=O | 0.9 | 2.2 | -3.1
CO[C@@H]1CN(C)C(=O)c2cc(NC(=O)C3CC3)ccc2OC[C@H](C)N(C(=O)c2ccccn2)C[C@@H]1C | 1.3 | -8.1 | -5.0
CCC(=O)N1CC[C@@H]2[C@@H](CO)Nc3ccc(C#Cc4cccc(OC)c4)cc3[C@@H]21 | 6.4 | 11.9 | -4.0
COc1ccc([C@@H]2C/C=C\C[C@@H](c3ccccc3)NC(=O)CCC(=O)N2)c(OC)c1 | -1.5 | 6.6 | -0.3
